# Screening results as filed in PubChem BioAssay.
# MARV entry inh: qHTS for inhibitors of binding or entry into cells for Marburg Virus; Marburg virus pseudotyped entry inhibition, cell reporter; control for the full effect not named in the record; about a third of the inactives were read at about 46 µM; AID 540276, 2011; 1.8% of 300,000 active; Potency, µM (series often up to 37.8 µM), without a hit: at the highest dose activity change, negative = inhibition, usual class: inhibitors; active = well fitted inhibition curve with a large enough effect; inconclusive = small, poorly fitted or top-dose-only effect, or effect the other way; inactive = flat fitted curve, though single readings scatter; tested in HEK293 cells; about a fifth of its hits are not listed in these tables; further: on the % scale 0 is the no-effect control and ±100 the full control effect; luciferase read-out
# RE007 growth inh: qHTS Assay for Inhibitors of the HIV-1 protein Vpr. S. pombe RE007 Vpr strain, BacTiter-Glo ATP luminescence, 24 h; control for the full effect not named in the record. Potency, µM (titrated, usually from 92.2 µM), for inactives: top-dose activity change, negative = less growth. 0.21% of 360,000 active; active = well fitted falling curve with a large enough effect; inconclusive = small, poorly fitted or top-dose-only effect; inactive = no such curve, though single readings can be large or run the other way;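 further: on the % scale 0 is the no-effect control and ±100 the full control effect; nearly all actives have a fitted effect of over 50% in size; the assay follows cell death caused by Vpr and the record does not say whether a fall means rescue or toxicity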
#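 Fission yeast RE007 carrying one integrated HIV-1 vpr copy, seeded at OD 0.01 in PMG+AL medium with 23 nL pinned compound. Grown 24 h at 30 degrees; viability read by BacTiter-Glo luminescence after 5 min.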
# Cruzain inh Det: qHTS Assay for Promiscuous and Specific Inhibitors of Cruzain (with detergent); Cruzipain (Trypanosoma cruzi), P25779; purified cruzain, Z-FR-AMC fluorescence, 0.01% Triton; Potency, µM, for the others: max response, negative = inhibition, most hits filed as inhibitors; 0.43% of 200,000 active; active means well fitted curve in the direction sought with a large enough effect; inconclusive means small, poorly fitted or top-dose-only effect, or another doubt; inactive means no such curve, though single readings can be large; an effect the other way counts as inactive or inconclusive;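 further: plate controls were neutral wells for no effect and buffer without enzyme for full effect; nearly all actives have a fitted effect of over 40% in size; top concentration of the series not given in the record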
# Target sequence (P25779 123-467 limits assumed): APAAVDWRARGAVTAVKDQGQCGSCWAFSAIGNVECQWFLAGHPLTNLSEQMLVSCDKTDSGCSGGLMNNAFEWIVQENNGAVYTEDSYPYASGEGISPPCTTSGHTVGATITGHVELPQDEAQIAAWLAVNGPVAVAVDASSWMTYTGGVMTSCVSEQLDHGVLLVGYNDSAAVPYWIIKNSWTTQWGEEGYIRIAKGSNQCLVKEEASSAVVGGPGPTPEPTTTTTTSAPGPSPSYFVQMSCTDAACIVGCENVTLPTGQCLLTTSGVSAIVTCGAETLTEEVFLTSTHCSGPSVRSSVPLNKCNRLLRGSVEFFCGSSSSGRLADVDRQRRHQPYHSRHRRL
#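 Z-FR-AMC hydrolysis (2 uM substrate) by cruzain (1.5 nM) monitored kinetically at ex 360/em 450 nm after 15 min room-temperature compound exposure; 0.01% Triton X-100, pH 5.5, 5 mM DTT.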
# LASV entry inh: qHTS for Inhibitors of binding or entry into cells for Lassa Virus; AID 540256, 2011; Potency, µM (top dose mostly 37.9 µM), without a hit: at the top dose activity change, negative = inhibition, most hits filed as inhibitors; Lassa virus pseudotype entry inhibition, cell reporter; control for the full effect not named in the record; 1.2% of 300,000 active; active means well fitted inhibition curve with a large enough effect; inconclusive means small, poorly fitted or top-dose-only effect, or effect the other way; inactive means flat fitted curve, though single readings scatter; tested in HEK293 cells; further: on the % scale 0 is the no-effect control and ±100 the full control effect; nearly all actives have a fitted effect of over 50% in size; luciferase read-out
# StopGo reporter: High Throughput Screening for Foot and Mouth Disease Virus Antivirals; human cells with a luciferase reporter of 2A StopGo recoding; control for the full effect not named in the record; Potency, µM (doses to about 57.9 µM), without a hit: at the top dose signal change, negative = less light; 1.2% of 410,000 active; active = well fitted falling curve with a large enough effect; inconclusive = small, poorly fitted or top-dose-only effect; inactive = no such curve, though single readings can be large or run the other way; tested in HEK293T cells; further: on the % scale 0 is the no-effect control and ±100 the full control effect; nearly all actives have a fitted effect of over 45% in size; luciferase light after 4 h
# SARS PLpro yeast: qHTS of Yeast-based Assay for SARS-CoV PLP; AID 485353, 2010; 0.19% of 330,000 active; Potency, µM (top dose mostly 32.9 µM), inactives show top-dose activity, positive = growth rescue; S. cerevisiae expressing SARS-CoV PLpro, growth rescue; control for the full effect not named in the record; further: 0% is about no effect; nearly all actives have a fitted effect of over 55% in size; growth read by luminescence after 48 h
# NS1 inh: qHTS Assay for Inhibitors of Influenza NS1 Protein Function. S. cerevisiae slowed by influenza A NS1, growth recovery by OD600. Potency, µM (highest dose often 46.1 µM), without a hit: at the top dose activity, positive = more growth. 0.4% of 270,000 active; further: actives are rising curves; nearly all actives have a fitted effect of over 50% in size
#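 Growth recovery, yeast-based: influenza A NS1 expressed in S. cerevisiae causes slow growth, and suppressors are detected by OD600. The parent strain without NS1 is used as positive control.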
# Cruzain noTriton: qHTS Assay for Promiscuous and Specific Inhibitors of Cruzain (without detergent); purified cruzain, Z-FR-AMC fluorescence, no detergent; 2.3% of 200,000 active; Potency, µM, for inactives: max response, negative = inhibition, most hits filed as inhibitors; active means well fitted curve in the direction sought with a large enough effect; inconclusive means small, poorly fitted or top-dose-only effect, or another doubt; inactive means no such curve, though single readings can be large; an effect the other way counts as inactive or inconclusive;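 further: plate controls were enzyme without inhibitor for no effect and buffer without enzyme for full effect; nearly all actives have a fitted effect of over 40% in size; top concentration of the series not given in the record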
#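 Detergent-free condition (0.00005% Triton X-100) in acetate buffer pH 5.5 with DTT. 1.5 nM enzyme and compound were pre-mixed 15 min, then 2 uM Z-FR-AMC substrate added; reaction progress from fluorescence change between first and third reads (60 s).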
# * hit, by the source's call; ? = inconclusive; . = no result given; [ ] = remark or other dose. Unless noted, the call rests on the fitted dose curve; in most records, active means well fitted rising curve with a large enough effect; inconclusive means small, poorly fitted or top-dose-only effect; inactive means no such curve, though single readings can be large or run the other way. Potency means the concentration at half of the fitted maximal effect. Compounds as they come. About 4.7% of those tested had a hit in this group.
SMILES	MARV entry inh	RE007 growth inh	Cruzain inh Det	LASV entry inh	StopGo reporter	SARS PLpro yeast	NS1 inh	Cruzain noTriton
Cc1nc(CN(C)C(=O)C2CCC(=O)N(CCc3cccc(F)c3)C2)cs1 (stereo not given)	-1%	2%	.	-6%	-7%	5%	6%	.
Cc1cccc2cc(/C=N/NC(=O)c3ccncc3)c(Cl)nc12	.	30%	.	.	-5%	0%	-31%	.
Cc1cc(F)c(F)c(C(=O)N2CCC(C)CC2)c1Cl	9%	4%	.	-2%	-2%	0%	0%	.
CC1CCc2sc(C(=O)Nc3ccc(C(N)=O)cc3)cc2C1 (stereo not given)	20%[46.1 µM]	24%	.	9%	24%	-1%	-1%	.
O=C(N[C@@H](Cc1ccccc1)C(=O)O)c1ccc(C(F)(F)F)cc1	.	3%	.	.	-11%	1%	8%	.
O=C(CNC(=O)c1cccc(OC(F)F)c1)Nc1ccc(Cl)cc1	-16%[46.1 µM]	-3%	.	-18%[46.1 µM]	-17%	5%	-4%	.
CCOc1ccc(NC(=O)CSc2nc(C3CC3)nc3ccccc23)cc1	-16%[46.1 µM]	-12%	.	1%	-1%	0%	2%	.
COc1ccc(NC(=O)CN2C(=O)C(C)(C)c3ccccc32)cc1Cl	.	.	-4.1%	-25%[46.1 µM]	?	.	.	-8%
CN(C)S(=O)(=O)Nc1ccc2c(c1)OCO2	10%	-13%	3.8%	6%	-9%	0%	4%	-6%
CCCCCN(C(=O)CCC(=O)OC(C)C(=O)c1ccc(Cl)cc1)c1c(N)n(CCCC)c(=O)[nH]c1=O (stereo not given)	-14%	3%	.	-21%[46.1 µM]	-8%	-6%	.	.
O=C(COc1ccccc1)NC1CCCCCCC1	.	33%	.	.	38%[activator]	?	-11%	.
O=C1c2ccc([N+](=O)[O-])cc2NC(c2ccco2)N1/N=C/c1ccco1 (stereo not given)	13%[46.1 µM]	-27%	.	6%[46.1 µM]	-3%	-6%	2%	.
CC1CCC(C(C)C)C(OC(=O)C[n+]2cccc(C(N)=O)c2)C1 (stereo not given)	4%	-25%	2.4%	1%	-14%	-3%	?	2%
COc1ccc(-n2nc(C(=O)NCC(=O)NCCCN3CCOCC3)c3ccccc3c2=O)cc1	13%[46.1 µM]	7%	.	17%[46.1 µM]	-2%	-2%	-13%	.
O=C(CCn1c(=O)oc2ccccc21)Nc1ccc(N2CCOCC2)cc1	3%[46.1 µM]	8%	.	6%[46.1 µM]	-8%	0%	9%	.
CC(=O)N1[C@H](C)C=C[C@]1(Cc1ccccc1)C(=O)NCCc1c[nH]c2ccccc12	.	1%	-2.9%	.	6%	5%	22%	8%
CCCCOc1ccc(C(=O)N(Cc2ccc(N(C)C)cc2)Cc2ccco2)cc1	-18%[46.1 µM]	.	-11%	?	-8%	.	.	-25%
O=C(Nc1cccc(Cl)c1)N1CCN2C(=O)c3ccccc3C12c1ccccc1 (stereo not given)	?	-3%	-1.5%	-21%	?	?	1%	5%
COc1ccc(/C=C(/C#N)C(=O)Nc2cccc([N+](=O)[O-])c2)cc1C(=O)O	-9%[46.1 µM]	-7%	.	-3%[46.1 µM]	-17%	1%	6%	.
COc1ccc(-c2c3c(=O)n(C)c(=O)n(C)c3cn2-c2ccccc2O)cc1	.	-1%	.	.	-22%	-1%	-6%	.
CCOc1ccc(CN2CCC(C(=O)N3CCN(c4ccccc4F)CC3)CC2)cc1OC	?	-6%	-1.3%	-3%	-34%	1%	-1%	?
O=C(OCc1ccc([N+](=O)[O-])cc1)c1cc([N+](=O)[O-])ccc1N1CCOCC1	-14%	4%	.	?	-29%	1%	.	.
CCOc1cccc(C(=O)NC(=S)Nc2ccc(N3CCCC3)cc2)c1	13%	-2%	?	-1%	0%	-2%	19%	32µM*
Cc1nnc2sc(-c3ccccn3)nn12	27%[46.1 µM]	-11%	6.6%	-11%	20%	0%	?	-6%
CCOc1ccc(NC(=O)C2CCCN(c3nn4c(=O)cc(C)nc4s3)C2)cc1 (stereo not given)	.	31%	.	.	-4%	1%	0%	.
O=C(NCc1ccco1)/C(=C/c1ccccc1)NC(=O)c1ccco1	-10%[46.1 µM]	15%	.	?	-21%	1%	10%	.
CNc1ccc(/C=C2\COc3ccccc3C2=O)cc1[N+](=O)[O-]	?	-12%	-3.3%	1%	-7%	5%	2%	8%
CCOC(=O)c1cccc(NC(=O)c2cc3ccccn3n2)c1	.	.	-4.9%	?	0%	.	.	-3%
Cc1c(-n2c(SCC(N)=O)nc3ccccc3c2=O)c(=O)n(-c2ccccc2)n1C	-9%[46.1 µM]	-9%	.	-11%	-10%	-1%	.	.
Cc1ccc(NC(=O)CCSc2nc(C)cc(C)n2)cc1	-4%	5%	9.6%	4%	-10%	0%	-6%	2%
Cn1cccc1/C=C1\C(=O)NC(=O)N(Cc2ccccc2Cl)C1=O	?	4%	.	-14%[46.1 µM]	?	-4%	.	.
Nc1nnc(SCC(=O)NC2CCCCCC2)s1	11%	9%	.	16%	3%	2%	.	.
CCCCCC(=O)Nc1ccc(-c2csc(N)n2)cc1	?	-15%	.	-2%	40%[activator]	0%	.	.
COC(=O)COc1ccc(/C=N/NS(=O)(=O)c2ccccc2)cc1	6%	-5%	.	?	77%[activator]	0%	7%	.
CCOc1ccc(NC(=O)CN(C)C(=O)c2ccc(OCC3CCCO3)cc2)cc1OCC (stereo not given)	5%	0%	.	-8%	0%	3%	1%	.
CC1=NN(CCC#N)C(=O)/C1=C/c1ccc(N(C)C)cc1	?	-8%	.	3%	11%	-4%	.	.
O=C(COC(=O)/C=C/C(=O)OCC(=O)NC12CC3CC(CC(C3)C1)C2)NC12CC3CC(CC(C3)C1)C2	8.9µM*	4%	-4.0%	-21%	?	-14%	2%	?
CCOC(=O)N1CCc2c(sc3c2c(=O)n(-c2ccc(Cl)cc2)c(=O)n3CC(=O)c2ccc(F)cc2)C1	-29%[46.1 µM]	.	-3.1%	13%[46.1 µM]	-6%	.	.	-4%
Cc1cccc(Cn2c(=O)n(CCC(=O)NCc3ccc4c(c3)OCO4)c(=O)c3sccc32)c1	?	.	-2.9%	8%[46.1 µM]	35%[activator]	.	.	1%
COc1ccc(OC)c(-n2c(C)cc(C=O)c2C)c1	-3%[46.1 µM]	-22%	.	?	-12%	0%	-2%	.
CC(C)(C)C1CCC(OCC(O)CN2CCN(c3ccccc3)CC2)CC1 (stereo not given)	-29%	-10%	4.9%	?	-35%	-26%	-121%	1%
COc1ccccc1CNC(=O)Cc1csc(NC(=O)Nc2ccccc2OC)n1	?	-17%	.	?	-27%	-2%	.	.
CC(NC(=O)COC(=O)CCNC(=O)c1ccco1)C12CC3CC(CC(C3)C1)C2 (stereo not given)	-3%	5%	2.9%	-7%	-28%	4%	-8%	5%
CCC(C)N(CCNC(=O)c1ccc(NC2=NC3CS(=O)(=O)CC3S2)cc1)Cc1ccco1 (stereo not given)	.	-1%	.	.	2%	2%	13%	.
Cn1c(-c2cccc(Br)c2)cnc1NCc1cccc(F)c1	?	.	-3.5%	-16%[46.1 µM]	-13%	.	.	-8%
CCC1CCCCN1S(=O)(=O)c1ccc(C(=O)Nc2sc3c(c2C(=O)NC)CCC3)cc1 (stereo not given)	.	.	-0.8%	?	-12%	.	.	8%
Cc1cc(=O)[nH]c(N/N=C2/CCCC/C2=C\c2ccccc2)n1	.	-12%	.	.	5%	6%	-8%	.
C/C(=N\NC(=O)c1ccc(C(=O)N/N=C(\C)c2ccco2)o1)c1ccco1	2%	-26%	.	8%	-12%	4%	6%	.
CCCCc1ccc(NC(=O)N[C@@H](C)C(=O)O)cc1	1%[46.1 µM]	0%	.	-8%[46.1 µM]	8%	-1%	-3%	.
Cc1ccc(CSC2=Nc3ccccc3C3=NC(CCC(=O)NC4CCCCC4)C(=O)N23)cc1 (stereo not given)	.	.	4.3%	13%[46.1 µM]	?	.	.	-7%
O=C(O)CCn1ccnc1-c1ccccc1	17%	-5%	2.2%	9%	-12%	-2%	-2%	-3%
CN1CCN(C(=O)c2cc3ccccc3[nH]2)CC1	.	15%	.	.	20%	-2%	13%	.
COc1ccccc1NC(=O)Cn1c(=O)n(Cc2ccccc2)c(=O)c2c1c1cc(C)ccc1n2C	.	.	-0.8%	5%[46.1 µM]	-3%	.	.	2%
O=C(Cn1ncc2c3ccccc3n(Cc3ccc(F)cc3)c2c1=O)N1CCC2(CC1)OCCO2	14µM*	-4%	-12%	?	?	2%	0%	?

# Shown with values under each structure: entries from further up.
# The line under a structure holds: MARV entry inh	RE007 growth inh	Cruzain inh Det	LASV entry inh	StopGo reporter	SARS PLpro yeast	NS1 inh	Cruzain noTriton
O=C(Cn1ncc2c3ccccc3n(Cc3ccc(F)cc3)c2c1=O)N1CCC2(CC1)OCCO2
→ 14µM*	-4%	-12%	?	?	2%	0%	?
O=C(O)CCn1ccnc1-c1ccccc1
→ 17%	-5%	2.2%	9%	-12%	-2%	-2%	-3%

# Reformatted with values under each structure: two of the compounds above
# Every second line gives: MARV entry inh, RE007 growth inh, Cruzain inh Det, LASV entry inh, StopGo reporter, SARS PLpro yeast, NS1 inh, Cruzain noTriton
- COc1ccccc1CNC(=O)Cc1csc(NC(=O)Nc2ccccc2OC)n1
  ?, -17%, ., ?, -27%, -2%, ., .
- CC(NC(=O)COC(=O)CCNC(=O)c1ccco1)C12CC3CC(CC(C3)C1)C2 (stereo not given)
  -3%, 5%, 2.9%, -7%, -28%, 4%, -8%, 5%
